Screens deposited in PubChem BioAssay by National Center for Advancing Translational Sciences (NCATS).
ClpP mod: qHTS Assay for Activators of ClpP | purified B. subtilis ClpP, FRET peptide cleavage, 20 min | 1.9% of 340,000 active | AID 651965, 2013 | Potency, µM (series often up to 57.5 µM), inactives show at the top dose activity change, negative = active; active = well fitted falling curve with a large enough effect; inconclusive = small, poorly fitted or top-dose-only effect; inactive = no such curve, though single readings can be large or run the other way; note: potency is the fitted concentration of half-maximal effect; the source files actives as falling curves though it sought activators and does not explain the sign; nearly all actives have a fitted effect of over 65% in size; many hits overshoot -100%
Target sequence (P80244 whole entry, looked up): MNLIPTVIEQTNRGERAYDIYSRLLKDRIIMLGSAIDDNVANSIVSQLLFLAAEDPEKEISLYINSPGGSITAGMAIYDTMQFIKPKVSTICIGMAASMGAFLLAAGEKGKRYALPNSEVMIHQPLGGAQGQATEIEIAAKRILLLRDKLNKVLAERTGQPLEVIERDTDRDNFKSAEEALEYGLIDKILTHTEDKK
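Purified B. subtilis ClpP, 10 microg/mL final in Tris/HCl pH8 with KCl, BSA, glycerol and Tween-20, cleaved an Abz/nitrotyrosine-quenched decapeptide. Fluorescence (ex 320, em 430) was read at 0 and 20 min at room temperature. Delta was normalized to 5.8 microM ADEP and DMSO/no-enzyme controls.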
Menin MLL FP FL: inhibitors of human menin-MLL interaction, wild-type MLL peptide | Fluorescence polarization, fluorescein-MLL peptide displacement from menin | FP activity change, % at 61.4 µM | 290,000 tested, under 10 active | AID 1766; inconclusive = falling polarisation curve, or a change in total fluorescence; inactive = total fluorescence flat and polarisation flat or rising; no compound was filed as active; the % refers to the polarisation; negative = inhibition;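 note: % of control where 0% means no effect; inhibitors lower the polarisation; unlabelled MLL peptide was the positive control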
PINK1 modulator: changes PINK1 expression. PINK1 immunofluorescence, high-content cytometry, 24 h. Potency, µM (highest dose often 76.6 µM), inactives show top-dose activation (PINK1 increase), usual class: activators. 0.2% of 410,000 active; active = well fitted activation curve with a large enough effect; inconclusive = small, poorly fitted or top-dose-only effect; inactive = flat fitted curve, though single readings scatter; cell line not stated here;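 note: potency is the fitted concentration of half-maximal effect; % of control where 0% means no effect; nearly all actives have a fitted effect of over 65% in size; a mitochondrial uncoupler was the plate control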
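PINK1 protein, normally rapidly degraded, was detected by immunofluorescence after 24 hour compound treatment of a stable cell line. Titration data (5 concentrations) came from laser-scanning cytometry, with CCCP-treated wells as controls.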
Sfp PPTase inh: Sfp phosphopantetheinyl transferase inhibition; 3.5% of 310,000 active; Potency, µM, without a hit: max response, negative = inhibition, usual class: inhibitors; AID 1490; Q9F4F7; Biochemical Sfp PPTase activity, qHTS; active = well fitted inhibition curve with a large enough effect; inconclusive = small, poorly fitted or top-dose-only effect, or another doubt; inactive = no such curve, though single readings can be large or run the other way;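 note: the enzyme is Sfp with the accession as filed and its product quenches rhodamine fluorescence; potency is the fitted concentration of half-maximal effect; 0% = enzyme reaction without inhibitor and -100% = no enzyme wells; top concentration of the series not given in the record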
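Fluorescence-quenching assay with 15 nM Sfp, 5 uM rhodamine-CoA and 12.5 uM BHQ-2-labelled ybbR peptide in pH 7.6 Hepes/MgCl2 buffer. Enzyme was pre-incubated with compound for 15 min at room temperature. Rate was taken from the 30-min fluorescence change (525/598 nm).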
TRPV1 PAM: enhances activation of the human vanilloid receptor TRPV1; Q8NER1; 0.02% of 320,000 active; potentiation, % at 8.33 µM; TRPV1-expressing cells, Fluo-8 calcium influx, capsaicin EC20 potentiation; host cell line not named in the record; control for the full effect not named in the record; active means potentiation above 80%; inconclusive means 30% to 80%; inactive means below 30%; note: 0% is about no effect
Target sequence (Q8NER1 whole entry, looked up): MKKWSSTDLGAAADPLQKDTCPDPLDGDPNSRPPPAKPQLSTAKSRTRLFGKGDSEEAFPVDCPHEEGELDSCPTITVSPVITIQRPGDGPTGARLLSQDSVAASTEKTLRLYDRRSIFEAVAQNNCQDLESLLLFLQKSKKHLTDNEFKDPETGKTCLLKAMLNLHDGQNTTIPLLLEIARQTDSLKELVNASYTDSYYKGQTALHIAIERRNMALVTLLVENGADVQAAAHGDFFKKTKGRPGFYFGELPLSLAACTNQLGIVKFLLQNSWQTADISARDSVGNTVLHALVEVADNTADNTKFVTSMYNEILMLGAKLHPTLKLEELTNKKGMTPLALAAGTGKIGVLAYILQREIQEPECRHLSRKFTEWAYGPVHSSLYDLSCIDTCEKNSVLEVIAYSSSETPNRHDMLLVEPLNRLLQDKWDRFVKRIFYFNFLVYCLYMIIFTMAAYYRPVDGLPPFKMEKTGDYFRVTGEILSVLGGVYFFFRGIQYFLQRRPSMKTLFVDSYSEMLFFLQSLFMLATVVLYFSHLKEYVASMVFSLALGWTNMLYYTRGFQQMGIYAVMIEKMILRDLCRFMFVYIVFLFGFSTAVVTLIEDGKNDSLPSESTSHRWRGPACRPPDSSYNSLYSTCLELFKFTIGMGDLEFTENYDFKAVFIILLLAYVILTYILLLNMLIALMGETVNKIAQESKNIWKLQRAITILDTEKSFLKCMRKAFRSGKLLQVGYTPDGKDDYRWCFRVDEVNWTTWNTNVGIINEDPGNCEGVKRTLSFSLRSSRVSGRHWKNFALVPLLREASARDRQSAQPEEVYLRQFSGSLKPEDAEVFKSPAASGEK
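Fluo-8 calcium influx in TRPV1-expressing cells, kinetic read (ex 480/em 520 nm). Compound added and read 3 min for agonist activity, followed by capsaicin at EC20 final and 2 min further read for enhancement.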
TRPML1 blocker: inhibitors of human TRPML1 channel; Q9GZU1; TRPML1-inducible cells, Ca2+ dye fluorescence, FDSS; stronger effect = lower value; inhibition of EC80 agonist-evoked calcium signal; activity change, negative = inhibition, % (concentration not given with the values); 0.02% of 390,000 active; AID 624415; in the data active means activity change below about -50%; inconclusive means about -30% to -50%; inactive means above about -30%;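 note: stimulus is agonist 54-4 at its EC80 concentration; % is set by controls: 0 for no effect and ±100 for the full control effect; compound concentration not given in the record; the text of the record puts the active cut at -80%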
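Calcium fluorescence in TRPML1-DL cells induced overnight with Tet: a 110 s read after compound pin addition, then a 110 s antagonist read after challenge with 54-4 at 4 uM final (EC80).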
TRPML1 ag: agonists of human TRPML1 channel; Q9GZU1; TRPML1-expressing cells, Ca2+ dye fluorescence, FDSS; host cell line not named in the record; reference of the full effect not given here; activation, % (no concentration beside the values); 0.12% of 410,000 active; in the data active = activation above about 50%; inconclusive = about 30% to 50%; inactive = below about 30%; note: 0% is about no effect; the text of the record puts the active cut at 80%
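Tetracycline-induced TRPML1-DL cells are seeded and incubated overnight before loading with a no-wash Ca2+ dye and quencher. Agonist activity is taken from the 110 s fluorescence read following compound pin-transfer on an FDSS, before EC80 54-4 challenge.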
* marks the source's active call; other numbers are inactive results; u = inconclusive; x = not tested or not shown; & = joins results of further samples; [ ] = another dose, or the depositor's remark.

Screens in order: ClpP mod, Menin MLL FP FL, PINK1 modulator, Sfp PPTase inh, TRPV1 PAM, TRPML1 blocker, TRPML1 ag
(1) O=C(CSc1nnc(-c2cccnc2)n1-c1ccccc1)Nc1ccc2c(c1)OCO2
→ 0.5%, 5.4, 7.3%[38.3 µM], 8%, -5, 13, 6.9
(2) Cc1ccc(C(=O)OCC(=O)NCc2ccccc2)cc1S(=O)(=O)N1CCCCC1
→ 0.8%, x, 0.3%, x, -8, 22, 1.9
(3) CCOc1ccccc1CNC(=O)CCn1ccc2cc(S(=O)(=O)N3CCCCC3)ccc21
→ -15%&-15%, 2.7, 2.2%&-0.7%, 1%, u, 32&26, 2.2&1.9
(4) Cc1ccc(C(c2nnnn2C2CCCCC2)N(C)C2CCCCC2)cc1 (configuration not stated)
→ -0.9%, 3.9, 13%[38.3 µM], 0%, -4, -6, 0.9
(5) Cc1nc(Cl)sc1C(=O)Nc1ccccc1Cl
→ -1.8%, -1.5, 0.7%, -1%, -6, x, x
(6) O=C(NCc1ccc2c(c1)OCO2)c1nc(Cn2cc(Br)cn2)no1
→ x, 0.0, -1.0%, 13%, 3, 0, -0.4
(7) CN(Cc1ccccc1)C(=O)c1ccc2c(c1)NC(=O)C(N1CCOCC1)S2 (configuration not stated)
→ x, 3.9, 1.1%, 11%, -5, -2, 0.9
(8) COCc1nc2ccccc2n1Cc1cccc(C)c1
→ 1.4%&-3.2%, -1.5, 2.5%&1.0%, 3%, -22, -8&-8, 2.4&-1.1
(9) O=C(Nc1ccccc1-c1ccccc1)c1ccc(=O)[nH]n1
→ -1.4%, 0.1, -0.8%, 10%, -12, 10, -0.2
(10) CC1CCN(c2ccc(-c3cccc(NS(=O)(=O)c4ccc(F)cc4F)c3)nn2)CC1
→ -4.0%, x, 18%, x, x, -2, 0.1
(11) C=CCn1nc(-c2ccccc2)cc1C(=O)OCC
→ -2.7%, x, 1.1%, x, x, 15, 3.1
(12) COc1ccc(CNn2cnnc2)c(O)c1
→ x, 1.3, -0.2%, 4%, 4, 11, -0.3
(13) O=C(O)CCCCCNS(=O)(=O)c1cccc2nsnc12
→ 0.5%, 1.0, -0.5%, 33%[activator], 12, 7, -0.6
(14) O=C(N/N=C/c1c[nH]c2ccccc12)C1CC1(c1ccccc1)c1ccccc1 (configuration not stated)
→ 1.3%, -0.1, -1.7%, 14%, 5, 16, 2.2
(15) Cc1cccn2c(=O)c(/C=C(\C#N)C(=O)NCc3ccco3)c(N3CCOCC3)nc12
→ x, 5.5, 0.9%, 5%, x, 17, -0.3
(16) C[C@H](CO)N1C[C@H](C)[C@H](CN(C)C(=O)Nc2cccc3ccccc23)OCc2cnnn2CCCC1=O
→ u, x, -1.2%, x, x, -8, 0.9
(17) CCOc1ccccc1N(C)C(=O)c1cc2c(s1)-c1ccccc1OC2
→ -9.4%, x, -0.1%, x, x, 11, 2.3
(18) CCOC(=O)CCNC(=O)N1CCCC(C(=O)c2ccc3c(c2)OCO3)C1 (configuration not stated)
→ -9.3%, 1.8, 1.2%, 9%, 8, 31, 1.1
(19) Cc1cc(NC(=O)CSc2nc3c(cc2C#N)CCCC3)no1
→ -0.6%, 2.5, 16%, 3%, 7, 6, -0.7
(20) CC(C)Cn1c(=O)oc2ccccc21
→ x, 6.1, -1.0%, 14%, 12, -15, -0.1
(21) O=C(NCc1ccccc1F)C1CC(=O)N(c2ccc3c(c2)OCCO3)C1 (configuration not stated)
→ 1.0%, x, 0.8%, x, -3, 7, -0.5
(22) CCOC(=O)c1ccc(NC(=O)Cn2c(C)nc3c(sc(=S)n3CC)c2=O)cc1
→ 1.0%, 3.1, 8.9%, 18%, 9, 4, 0.3
(23) COC(=O)/C(=C1/Oc2cc(C)oc(=O)c2S1)C(F)(F)F
→ -3.9%, 3.2, -1.2%, -14%, 1, 6, -0.2
(24) CCc1c(C#N)c(SCCC(=O)Nc2ccc(OC)cc2)nc2c1C(=O)CC(C)(C)C2
→ -2.6%, 1.9, 4.0%, 3%, -13, -5, 0.5
(25) O=C(COc1ccc(Br)cc1)Nc1ccc(Cc2ccncc2)cc1
→ -2.4%, 5.2, 0.7%, -21%, -16, -9, 0.0
(26) CCn1ncc(Br)c1C(=O)N(C)C12CC3CC(CC(C3)C1)C2
→ -0.5%, 0.4, -0.2%, 13%, 0, -4, 1.9
(27) O=C(CN(c1cccc(Br)c1)S(=O)(=O)c1ccccc1)N1CCc2ccccc2C1
→ -0.4%, x, 1.6%, x, x, 5, 0.3
(28) CC(C)c1c(C(=O)N/N=C/c2cccc(OCc3ccc(F)cc3)c2)nnn1-c1nonc1N
→ x, x, 26%, 35%[activator], 6, -5, 2.3
(29) CC1Cc2cc(S(=O)(=O)CCC(=O)N3CCN(c4ccccc4)CC3)ccc2N1C(=O)C1CC1 (configuration not stated)
→ 1.8%, u, 4.0%, 0%, 6, 6, -0.8
(30) Cc1ccccc1-c1ccc2ncnc(NCc3cccs3)c2c1
→ x, 0.6, 1.4%, u, x, x, x
(31) CCOC(=O)c1cnc2cc(C(F)(F)F)ccc2c1Nc1cc(C)ccc1OC
→ 0.7%, x, 1.2%, x, x, -2, -0.5
(32) COc1cccc(OC)c1NC(=O)C1CCCN1C(=O)Nc1ccccc1F (configuration not stated)
→ x, -2.3, 0.7%, 16%, -12, 29, -0.4
(33) COc1ccc(NC(=O)CSc2nnc(CN3CCOCC3)n2C)cc1Cl
→ 1.5%, x, -2.5%, x, x, 1, -0.6
(34) Cc1ccc(CNC(=O)c2ccccc2NS(=O)(=O)c2ccc(Cl)nc2)cc1
→ -15%, 2.5, u, 21%, -1, 42, 0.9
(35) COc1ccc(C)cc1Nc1n[n+](-c2ccccc2)c(-c2ccc(SC)cc2)s1
→ 2.2%, -0.5, 4.3%, u, 1, -10, -1.3
(36) COc1ccc(C(=O)NCC(c2cccs2)N2CCc3ccccc32)cc1OC (configuration not stated)
→ x, x, 0.1%, x, 2, 4, 2.4
(37) Cc1ccc(C)c(S(=O)(=O)N2CCN(C(=O)CN3C(=O)NC(C)(C)C3=O)CC2)c1
→ 0.1%, x, 2.5%, x, 10, 9, 0.0
(38) COc1ccc(C(=O)OCC(=O)N2CCc3ccccc32)cc1S(=O)(=O)N1CCOCC1
→ -0.5%, x, 0.8%, x, x, 22, -0.6
(39) CCCNC(=O)c1cc(C2CCCN(C(=O)c3ccccc3)C2)on1 (configuration not stated)
→ 0.0%, x, 5.4%, x, x, x, -0.7
(40) COc1ccc(-c2ccc(SCC(=O)N3c4ccccc4CC3C)nn2)cc1OC (configuration not stated)
→ -0.8%, 9.4, 0.9%[38.3 µM], 10%, -9, -19, 2.4
(41) FC(F)(F)c1cccc(N2CCN(Cc3ccoc3)CC2)c1
→ -0.1%, -0.9, 4.8%[38.3 µM], u, -15, -12, 1.9
(42) NC(=O)C[n+]1cccc(/C=N/O)c1
→ x, -8.8, 2.3%, 2%, -4, 9, -0.4
(43) Cc1ccc(C2=CC(c3ccccc3)n3ncnc3N2)c(C)c1 (configuration not stated)
→ -5.4%, x, 2.5%, x, x, 12, -0.1
(44) COc1ccc(NC(=O)CCCNS(=O)(=O)c2cccs2)cc1
→ 1.1%, 1.7, -1.4%, 12%, -11, 4, 0.6
(45) COC(=O)c1c(C(=O)c2ccc(Br)cc2)n(C)c2ccccc12
→ -6.6%, x, 6.4%, x, 13, 77, 2.1
(46) O=C(c1ccco1)N1CCN(CCOc2ccccc2)CC1
→ 0.2%, 1.8, -0.3%, 3%, -15, 12, -0.4
(47) NC(=O)CC(NC(=O)Cc1cccc2ccccc12)c1ccc(NCCN2CCCC2)c([N+](=O)[O-])c1 (configuration not stated)
→ 1.1%, 0.3, 1.0%, 3%, -1, 13, 0.0
(48) O=C(O)CCCn1ccc2cc(S(=O)(=O)N3CCCC3)ccc21
→ -2.4%, x, -1.5%, 8%, 11, 1, -0.1
(49) Cc1noc2ncnc(Sc3ccc(Br)cc3)c12
→ -0.8%, -0.9, 4.0%, -6%, -3, -13, -1.4
(50) Cc1ccc(CNC(=O)C2CCCN2C(=O)Nc2ccc(C)cc2)cc1 (configuration not stated)
→ -8.0%, 4.4, 0.0%, 11%, -4, -15, -1.4
(51) CCOC(=O)c1cc(OC(=O)c2ccc(C)cc2)n(-c2ccccc2)n1
→ -4.0%, x, -0.1%, x, x, 0, 3.2
(52) CSc1nc(N2CCOCC2)c2c(c1C#N)CCCCC2
→ -7.0%, 1.7, 1.6%, -3%, -12, -20, 0.3
(53) COc1cccc(NC(=O)CN(C)C(=O)Cc2ccc3c(c2)CCC3)c1
→ -4.2%, x, -0.7%, x, -15, -20, 0.6
(54) COc1ccc(Cn2c(=N)c(C(=O)NCC3CCCO3)cc3c(=O)n4ccccc4nc32)cc1 (configuration not stated)
→ -14%, 6.0, -0.8%, 15%, -20, x, x
(55) O=C(CC1CCCC1)N1CCN(S(=O)(=O)c2cccc(F)c2)CC1
→ x, x, 2.2%, x, x, -4, -0.7
(56) CCN(Cc1ccccc1)C(=S)Nc1cc(C(=O)OC)ccc1C(=O)OC
→ -9.8%, 2.5, 1.1%, 1%, -4, 8, -0.2
(57) CCC(C)(C)n1nnnc1C(c1ccc(C)cc1)N1CCN(C(=O)c2ccco2)CC1 (configuration not stated)
→ 0.5%, 6.2, 0.7%, -2%, 26, 3, -0.8
(58) O=[N+]([O-])c1cccc(C2=NCCC(c3ccccc3)O2)c1 (configuration not stated)
→ -4.2%, 1.0, -1.1%, 2%, 3, -23, 0.0
(59) O=C(COC(=O)c1cc[n+]([O-])cc1)Nc1ccc([N+](=O)[O-])cc1C(F)(F)F
→ 1.5%, x, 3.6%, x, 13, 5, 0.3
(60) Cc1[nH]c(=O)[nH]c(=O)c1/C=N/NC(=O)[C@H](CC(C)C)NC(=O)OC(C)(C)C
→ 1.5%, 2.1, -0.4%, -6%, -18, 1, 0.6
